SARS PLP yeast: inhibitors of SARS-CoV papain-like protease in yeast. Potency, µM (highest dose often 32.9 µM), inactives show at the highest dose activity, positive = growth rescue. S. cerevisiae expressing SARS-CoV PLpro, growth rescue; control for the full effect not named in the record. hit rate 0.19% among 330,000; also: 0% is about no effect; nearly all actives have a fitted effect of over 55% in size; growth read by luminescence after 48 h
MARV entry inh: blocks Marburg virus binding to or entry into cells; Marburg virus pseudotyped entry inhibition, cell reporter; control for the full effect not named in the record; about a third of the inactives were read at about 46 µM; Potency, µM (series often up to 37.8 µM), without a hit: at the top dose activity change, negative = inhibition, actives largely listed as inhibitors; hit rate 1.8% among 300,000; AID 540276; active = well fitted inhibition curve with a large enough effect; inconclusive = small, poorly fitted or top-dose-only effect, or effect the other way; inactive = flat fitted curve, though single readings scatter; tested in HEK293 cells; about a fifth of its hits are not listed in these tables; also: % is scaled to controls: 0 for no effect and ±100 for the full control effect; luciferase read-out
NS1 inh: influenza NS1 inhibition. S. cerevisiae slowed by influenza A NS1, growth recovery by OD600. Potency, µM (top dose mostly 46.1 µM), inactives show top-dose activity, positive = more growth. hit rate 0.4% among 270,000; also: actives are rising curves; nearly all actives have a fitted effect of over 50% in size
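Read-out: OD600 growth recovery of NS1-expressing budding yeast. Cells grown overnight at 30C in -URA glucose medium, washed, resuspended and diluted 1:100 in 2% galactose assay medium, pH 6.0. Same strain lacking NS1 served as positive control.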
RE007 growth inh: less growth of the S. pombe RE007 Vpr strain | hit rate 0.21% among 360,000 | S. pombe RE007 Vpr strain, BacTiter-Glo ATP luminescence, 24 h; control for the full effect not named in the record | Potency, µM (highest dose often 92.2 µM), without a hit: top-dose activity change, negative = less growth; active = well fitted falling curve with a large enough effect; inconclusive = small, poorly fitted or top-dose-only effect; inactive = no such curve, though single readings can be large or run the other way;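 also: % is scaled to controls: 0 for no effect and ±100 for the full control effect; nearly all actives have a fitted effect of over 50% in size; the assay follows cell death caused by Vpr and the record does not say whether a fall means rescue or toxicity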
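Fission yeast strain RE007, carrying one chromosomally integrated HIV-1 vpr copy, was seeded at OD 0.01 in PMG+AL medium with 23 nL pinned compound. After 24 h at 30 °C and 99% humidity, viability was read by BacTiter-Glo luminescence.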
Cruzain Triton: inhibitors of Trypanosoma cruzi cruzain with detergent. Potency, µM, inactives show max response, negative = inhibition, most hits filed as inhibitors. purified cruzain, Z-FR-AMC fluorescence, 0.01% Triton. hit rate 0.43% among 200,000. P25779; active = well fitted curve in the direction sought with a large enough effect; inconclusive = small, poorly fitted or top-dose-only effect, or another doubt; inactive = no such curve, though single readings can be large; an effect the other way counts as inactive or inconclusive;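 also: plate controls were neutral wells for no effect and buffer without enzyme for full effect; nearly all actives have a fitted effect of over 40% in size; top concentration of the series not given in the record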
Target sequence (P25779 123-467 limits assumed): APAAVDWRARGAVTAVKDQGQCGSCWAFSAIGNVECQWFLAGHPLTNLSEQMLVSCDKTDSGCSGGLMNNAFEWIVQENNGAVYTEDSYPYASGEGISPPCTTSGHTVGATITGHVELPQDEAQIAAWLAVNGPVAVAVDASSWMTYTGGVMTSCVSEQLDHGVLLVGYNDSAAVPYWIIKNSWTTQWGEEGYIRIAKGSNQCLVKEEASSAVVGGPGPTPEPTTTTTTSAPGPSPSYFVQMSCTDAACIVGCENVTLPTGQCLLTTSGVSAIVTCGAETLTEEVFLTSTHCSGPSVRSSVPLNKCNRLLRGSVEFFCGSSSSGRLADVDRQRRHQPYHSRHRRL
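Enzyme 1.5 nM, Z-FR-AMC 2 uM, NaOAc 100 mM pH 5.5, DTT 5 mM, Triton X-100 0.01%; 15 min RT compound preincubation; kinetic ex360/em450, 60 s delta.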
Cruzain noTriton: cruzain (T. cruzi) inhibition without detergent | AID 1476 | P25779 | Potency, µM, without a hit: max response, negative = inhibition, actives largely listed as inhibitors | hit rate 2.3% among 200,000 | purified cruzain, Z-FR-AMC fluorescence, no detergent; active = well fitted curve in the direction sought with a large enough effect; inconclusive = small, poorly fitted or top-dose-only effect, or another doubt; inactive = no such curve, though single readings can be large; an effect the other way counts as inactive or inconclusive;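 also: plate controls were enzyme without inhibitor for no effect and buffer without enzyme for full effect; nearly all actives have a fitted effect of over 40% in size; top concentration of the series not given in the record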
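Purified cruzain at 1.5 nM, pre-incubated 15 min with compound at room temperature in 100 mM sodium acetate pH 5.5, 5 mM DTT, 0.00005% Triton X-100. Reaction started with 2 uM Z-FR-AMC; AMC fluorescence increase over 60 s gives rate.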
2A StopGo: lowers the luciferase signal of an FMDV 2A StopGo reporter; human cells with a luciferase reporter of 2A StopGo recoding; control for the full effect not named in the record; Potency, µM (top dose mostly 57.9 µM), for the others: at the highest dose signal change, negative = less light; hit rate 1.2% among 410,000; AID 1159524; active = well fitted falling curve with a large enough effect; inconclusive = small, poorly fitted or top-dose-only effect; inactive = no such curve, though single readings can be large or run the other way; tested in HEK293T cells; also: % is scaled to controls: 0 for no effect and ±100 for the full control effect; nearly all actives have a fitted effect of over 45% in size; luciferase light after 4 h
Lassa entry inh: blocks Lassa virus binding to or entry into cells. hit rate 1.2% among 300,000. Lassa virus pseudotype entry inhibition, cell reporter; control for the full effect not named in the record. AID 540256. Potency, µM (top dose mostly 37.9 µM), for inactives: at the top dose activity change, negative = inhibition, hits mostly inhibitors; active means well fitted inhibition curve with a large enough effect; inconclusive means small, poorly fitted or top-dose-only effect, or effect the other way; inactive means flat fitted curve, though single readings scatter; tested in HEK293 cells; also: % is scaled to controls: 0 for no effect and ±100 for the full control effect; nearly all actives have a fitted effect of over 50% in size; luciferase read-out
* hit, by the source's call; ? = inconclusive; . = not tested or not shown; [ ] = another dose, or the depositor's remark. Unless noted, calls follow the shape of the dose curve; as a rule, active means well fitted rising curve with a large enough effect; inconclusive means small, poorly fitted or top-dose-only effect; inactive means no such curve, though single readings can be large or run the other way. Potency is read from the fitted curve at half-maximal effect. No enrichment for hits, and some 4.7% of all compounds hit somewhere here.

# | canonical_smiles | SARS PLP yeast | MARV entry inh | NS1 inh | RE007 growth inh | Cruzain Triton | Cruzain noTriton | 2A StopGo | Lassa entry inh
1 | CC1=NCCN1CCNC(=O)Nc1cc(C)cc(C)c1 | 0% | -10%[46.1 µM] | -1% | 6% | . | . | -7% | 0%[46.1 µM]
2 | CC1CCN(c2nc(NCc3ccco3)nc(N)c2[N+](=O)[O-])CC1 | -23% | -19% | -1% | 6% | -9.0% | 1% | ? | ?
3 | Cc1ccc(OCC(=O)Nc2ccc3nc(SCc4ccccc4)sc3c2)cc1 | . | 0%[46.1 µM] | . | . | -0.1% | -1% | 19% | 6%[46.1 µM]
4 | CCCCN(CCCC)C(=O)C1CCN(S(=O)(=O)c2cccc3nsnc23)CC1 | . | ? | . | . | 1.4% | -5% | -26% | 0%[46.1 µM]
5 | O=C(NCc1ccco1)c1ccccc1F | -1% | -15% | 1% | 13% | -14% | -5% | -8% | 13%
6 | COc1ccccc1N1CCN(C(c2cc3cc(C)ccc3[nH]c2=O)c2nnnn2C2CCCC2)CC1 (stereo unspecified) | 2% | ? | -14% | -9% | -0.5% | ? | 4% | ?
7 | COc1cc(C)ccc1NC(=O)Cc1csc(NC(=O)Nc2ccccc2OC)n1 | -9% | ? | . | -1% | . | . | ? | ?
8 | OC(CN1CCN(Cc2ccc3c(c2)OCO3)CC1)c1c[nH]c2ccccc12 (stereo unspecified) | 2% | -28% | -9% | -21% | 5.1% | -6% | 0% | ?

Excerpt, compounds 1–3
# | canonical_smiles | SARS PLP yeast | MARV entry inh | NS1 inh | RE007 growth inh | Cruzain Triton | Cruzain noTriton | 2A StopGo | Lassa entry inh
1 | CC1=NCCN1CCNC(=O)Nc1cc(C)cc(C)c1 | 0% | -10%[46.1 µM] | -1% | 6% | . | . | -7% | 0%[46.1 µM]
2 | CC1CCN(c2nc(NCc3ccco3)nc(N)c2[N+](=O)[O-])CC1 | -23% | -19% | -1% | 6% | -9.0% | 1% | ? | ?
3 | Cc1ccc(OCC(=O)Nc2ccc3nc(SCc4ccccc4)sc3c2)cc1 | . | 0%[46.1 µM] | . | . | -0.1% | -1% | 19% | 6%[46.1 µM]

Next records follow:
# | canonical_smiles | SARS PLP yeast | MARV entry inh | NS1 inh | RE007 growth inh | Cruzain Triton | Cruzain noTriton | 2A StopGo | Lassa entry inh
9 | Cc1ccc2sc(N(Cc3cccnc3)C(=O)C3COc4ccccc4O3)nc2c1C (stereo unspecified) | . | . | . | . | 0.3% | -10% | -10% | 14%[46.1 µM]
10 | COCCNC(=O)c1ccc(CSc2nc3ccccc3s2)cc1 | -1% | ? | -56% | 5% | . | . | -14% | 30%[46.1 µM]
11 | COc1ccc(N2CCN(C(=O)c3cccn4c(=O)c5ccccc5nc34)CC2)cc1 | 1% | 3% | . | 0% | . | . | 16% | -1%
12 | CC(C)NC(=O)C1CCN(C2CCN(Cc3nc(C(C)C)cs3)CC2)CC1 | 0% | 14%[46.1 µM] | 6% | 6% | . | . | 47%[activator] | -11%[46.1 µM]
13 | Cc1ccc(S(=O)(=O)N(CC(=O)N=Nc2c(O)[nH]c3ccccc23)c2ccc(C)c(C)c2)cc1 | 6% | ? | ? | -1% | -6.6% | -15% | -11% | ?
14 | O=[N+]([O-])c1cc([N+](=O)[O-])c(Oc2c(Cl)cccc2Cl)cc1NN1CCCCC1 | -1% | . | -9% | -7% | . | . | -13% | .
15 | COc1cc(/C=N/NC(=O)c2ccc3c(c2)OCO3)ccc1O | 1% | . | ? | 3% | . | . | 57%[activator] | .
16 | Cn1cccc1CC(=O)N/N=C/c1cccc([N+](=O)[O-])c1 | 1% | 17%[46.1 µM] | . | 3% | . | . | 2% | 21%[46.1 µM]
17 | COc1ccc(NC(=O)CSc2nc(O)cc(=O)n2C)cc1 | 2% | 29% | ? | 15% | -25% | 16µM* | -3% | 3%
18 | COc1ccc([N+](=O)[O-])cc1NCc1ccco1 | 2% | . | 5% | -7% | . | . | 2% | .
19 | CCN(CC)S(=O)(=O)c1cccc(C(=O)N[C@H](C(=O)OCC(N)=O)C(C)C)c1 | 1% | -5% | 1% | 2% | -3.1% | -7% | 20% | 2%
20 | Cc1nn2c(=O)cc(COC(=O)c3ccc(NC(=O)c4cccs4)cc3)nc2s1 | . | . | . | . | -0.3% | 7% | 14µM* | 13%[46.1 µM]
21 | COCCn1nnnc1C(c1cc2ccc(OC)cc2[nH]c1=O)N1CCN(C2CCCCC2)CC1 (stereo unspecified) | 2% | -21% | 4.5µM* | -17% | -2.3% | -2% | 7% | 1%
22 | C=CCC(=O)OCCCCCCOc1ccc(C(=O)O)cc1 | -19% | -9% | -13% | -7% | -1.4% | -5% | 11% | 9%
23 | CSc1nnnn1-c1c(C)cccc1C | 1% | . | 1% | -6% | . | . | 0% | .
24 | Brc1ccc2nc(N3CCCC3)sc2c1 | 1% | ? | . | -13% | . | . | -19% | ?
25 | CCN(CC)CCCNC(=O)CSc1nc2c(c(C(F)(F)F)n1)CCc1ccccc1-2 | 0% | ? | -1% | 0% | . | . | -15% | ?
26 | CCC1CCCCN1CCCNC(=O)c1ccc2c(c1)NC(=O)CS2 (stereo unspecified) | -1% | . | -8% | -1% | . | . | -4% | .
27 | Cc1ccc(N=CC2=C(O)CC(C)(C)CC2=O)nc1 | -6% | -13% | 1% | -26% | -3.7% | -12% | 7% | 6%
28 | O=C(NNc1c(Cl)cc(Cl)cc1Cl)c1cccc([N+](=O)[O-])c1 | -82% | 9% | -21% | 7% | -7.1% | -11% | -10% | 0%
29 | O=C(NNC(=S)NC(=O)c1ccccc1[N+](=O)[O-])c1ccc(Cl)cc1Cl | 0% | -11%[46.1 µM] | 7% | 47% | . | . | 12% | -18%[46.1 µM]
30 | Fc1ccccc1Nc1nc(-c2ccncc2)nc2ccccc12 | 1% | ? | 2% | 16% | -5.1% | -2% | ? | ?
31 | Cc1cccc(C(=O)OC(C)C(=O)NCC2CCCCC2)c1O (stereo unspecified) | 1% | 20% | . | -6% | . | . | -16% | 15%
32 | COc1ccc(C(=O)Cn2c(C(C)=O)nc3ccccc32)cc1 | . | ? | . | 13% | . | . | 5% | ?
33 | CC1(C)CC2CC(C)(CN2C(=O)Cc2ccccc2)C1 (stereo unspecified) | 14% | 2%[46.1 µM] | 5% | -8% | 0.0% | 5% | -9% | -16%
34 | CCc1ccc(-c2cc(C)no2)cc1S(=O)(=O)Nc1cc(C)ccn1 | -5% | 11%[46.1 µM] | 3% | -11% | . | . | 62%[activator] | 3%[46.1 µM]
35 | CC(C)CCN(C(=S)Nc1cccc(F)c1)C1CCN(C(C)C)CC1 | 0% | ? | . | -8% | . | . | -21% | ?

An excerpt of these results, field by field.
(25) CCN(CC)CCCNC(=O)CSc1nc2c(c(C(F)(F)F)n1)CCc1ccccc1-2
  SARS PLP yeast = 0% | MARV entry inh = ? | NS1 inh = -1% | RE007 growth inh = 0% | Cruzain Triton = . | Cruzain noTriton = . | 2A StopGo = -15% | Lassa entry inh = ?
(26) CCC1CCCCN1CCCNC(=O)c1ccc2c(c1)NC(=O)CS2 (stereo unspecified)
  SARS PLP yeast = -1% | MARV entry inh = . | NS1 inh = -8% | RE007 growth inh = -1% | Cruzain Triton = . | Cruzain noTriton = . | 2A StopGo = -4% | Lassa entry inh = .
(27) Cc1ccc(N=CC2=C(O)CC(C)(C)CC2=O)nc1
  SARS PLP yeast = -6% | MARV entry inh = -13% | NS1 inh = 1% | RE007 growth inh = -26% | Cruzain Triton = -3.7% | Cruzain noTriton = -12% | 2A StopGo = 7% | Lassa entry inh = 6%

Screening results from PubChem.
